H5N1 CPE: MDCK cell protection from H5N1 avian flu | cytopathic effect, luminescence, 72 h; hits give high values; no value below 0 was filed and about half of the inactive calls have no number; reference of the scale not given here | inhibition, % at 50 µM | hit rate 0.07% among 96,000 | AID 740, 2007; in the data active = inhibition above about 25%
Active calls of the source: *; i = inactive. These rows are one share of the data. The share of hits here may be higher or lower than overall.

SMILES	H5N1 CPE
COC(=O)c1ccc(NC(=O)CN2CCN(c3ccccc3)CC2)cc1	i
Cc1sc2ncnc(NCC(c3ccco3)N3CCCC3)c2c1C (stereo unspecified)	1.4
O=C(NCCCN1CCN(c2cccc(Cl)c2)CC1)c1ccc(N2CCCC2=O)cc1	i
Cc1cc(C)n(-c2ccc(C(=O)OCC(=O)c3ccc(Br)s3)cc2)n1	i
N#Cc1nc(Cc2cccc3ccccc23)oc1NCc1ccco1	i
COc1ccc(O)c(C(=O)CC(=O)c2ccccc2)c1	5.3
CN(C)CC(=O)Nc1cc(C(F)(F)F)ccc1Cl	5.7
Cc1cc2cc(CNC(=O)CCC(=O)O)ccc2[nH]1	0.7
COc1ccc(Cl)cc1C(=O)Nc1ccc(N(C)C(C)=O)cc1	i
Nc1nc(SCc2c(F)cccc2Cl)[nH]c(=O)c1-c1ccccc1	0.5
CCCCCc1c(C)c(C#N)c2nc3ccccc3n2c1-n1ccnc1C	0.7
CC(=O)Nc1ccc(Oc2cc(C#N)c(C#N)cc2N2CCCCCC2)cc1	6.2
CC1CCN(Cc2nc3c(c(=O)n(C)c(=O)n3C)n2CCCc2ccccc2)CC1	0.2
COc1cccc(C2C(C(=O)Nc3nc4ccccc4s3)=C(C)NC3=C2C(=O)CC(C)(C)C3)c1OC (stereo unspecified)	i
CCOC(=O)C1CCN(C(=O)c2cccc(NC(=O)C(CC)CC)c2)CC1	i
CCN(c1ccc(OC)cc1)S(=O)(=O)c1ccc2c(c1)CCN2C(=O)CCC(=O)O	0.8
CCOC(=O)C(C(=O)OCC)C(C(=O)OCC)N1CCOCC1 (stereo unspecified)	i
CCOc1ccccc1C(=O)N1CCCCC1C (stereo unspecified)	0.1
Cc1ccc(-c2ccc(=O)n(CC(=O)NCCCN3CCCCC3C)n2)cc1 (stereo unspecified)	2.3
COc1ccccc1NC(=O)Cc1csc(N)n1	i
CCOC(=O)C1CCCN(S(=O)(=O)c2c(C)c(C)cc(C)c2C)C1 (stereo unspecified)	1.4
COC(=O)C1CCN(C(=O)C23CCC(C)(C(=O)O2)C3(C)C)CC1 (stereo unspecified)	i
CCC1CC(C)(C(=O)Nc2ccc(S(N)(=O)=O)cc2)OC1=O (stereo unspecified)	0.2
Cc1ccc(C)c(/C(O)=C2/C(=O)C(=O)N(CCN3CCOCC3)C2c2ccc(C)o2)c1 (stereo unspecified)	1.1
CCCC(=O)Nc1cc(-c2nn(C)c(=O)c3ccccc23)ccc1OC	0.2
CCC(C)(C)NC(=O)C(c1ccc(C)cc1)N(Cc1cccs1)C(=O)c1ccc2c(c1)OCCO2 (stereo unspecified)	i
Cc1n[nH]c(=O)nc1NCc1ccccc1	i
Cc1cc(O)cc(=O)n1Cc1ccco1	i
CC(C)(C)OC(=O)NCCCCCc1nnc(SCC(N)=O)o1	i
CCOc1ccc(-n2c(C)nc3cc(C(=O)NCCCN4CCOCC4)ccc32)cc1	i
O=C(c1ccc(F)cc1)C(CCCCCC(CN1CCOCC1)C(=O)c1ccc(F)cc1)CN1CCOCC1 (stereo unspecified)	0.1
COCC(=O)Nc1c(C(=O)Nc2cccc(OC)c2)oc2ccccc12	i
CC(=O)c1ccc(NC(=O)c2cc3nc4c(c(C(F)(F)F)n3n2)CCCC4)cc1	0.4
Cc1nc(C)c(C(=O)NCc2ccc(Cl)cc2)o1	i
CCn1c(=O)cc(SCC(=O)NCCCN2CCN(c3ccccc3F)CC2)c2ccccc21	i
Cc1cc(=O)n2c(n1)OC(CO)C2 (stereo unspecified)	1.1
COC(=O)c1ccc(NC(=O)c2ccc(CN3CCOCC3)cc2)cc1	1.1
O=C(Cn1nnc2ccccc21)N1CCCCC1	0.1
CC(C)CCNC(=O)CN(Cc1cccs1)C(=O)CCC(=O)Nc1nccs1	1.5
Cc1ccc(-n2nnnc2C(=Cc2ccc(N(C)C)cc2)c2nnnn2-c2ccc(C)cc2)cc1	0.4
CC(C)=CCSc1nnc([C@@H](N)Cc2c[nH]c3ccccc23)o1	i
COc1ccc(NC(=O)C2CC2)cc1NS(=O)(=O)c1ccc(F)cc1	i
COC(=O)Cn1c(=NC(=O)CSCC(=O)NC2CCCCC2)sc2cc(OC)ccc21	0.3
O=C(c1ccccc1)N1CCN(C2CC(=O)N(CCc3ccccc3)C2=O)CC1 (stereo unspecified)	0.5
CCOC(=O)c1oc2ccccc2c1NC(=O)COC	0.2
CC(C)c1[nH]nc2c1C(c1cccc(OC(=O)N3CCOCC3)c1)C(C#N)=C(N)O2 (stereo unspecified)	i
Cc1cccc2cc(C(c3nnnn3C3CCCC3)N3CCOCC3)c(=O)[nH]c12 (stereo unspecified)	i
c1ccc(-c2cc(N3CCOCC3)nc(-c3ccccc3)n2)cc1	0.5
O=C(CSc1nnc(C2COc3ccccc3O2)o1)N1CCCCC1 (stereo unspecified)	0.6
CCNC(=O)c1sccc1-n1cccc1	i
Cc1cccc(-n2c(SCC(=O)Nc3nonc3C)nnc2-c2ccoc2C)c1	1.7
CCOc1ccc(C(=O)CCC(=O)O)cc1	0.3
CCCOc1cccc(-c2cc(C(=O)NNC(=S)NCC)c3ccccc3n2)c1	0.6
FC(F)(F)c1cccc(Sc2cc(C(F)(F)F)nc(-c3ccccn3)n2)c1	i
Cc1c(C)c2cc(Cl)c(OCc3nn[nH]n3)cc2oc1=O	0.1
Cc1ccc(-n2nc3c(c2NC(=O)c2ccc4c(c2)OCO4)CS(=O)C3)cc1 (stereo unspecified)	i
CCc1sc(C(=O)NC2CCN(C)CC2)cc1Br	i
COc1cc(C2C(C(=O)c3ccc(C)o3)=C(O)C(=O)N2c2cc(C)on2)ccc1O (stereo unspecified)	i
CCOC(=O)C(C(=O)OCC)[C@@H]1CS(=O)(=O)C[C@H]1C(C(=O)OCC)C(=O)OCC	0.4
CCOC(=O)C1=C(O)/C(=C/N(C)C)N=C1C	1.3
(listing goes on)
SMILES	H5N1 CPE
CC(=O)c1cc2c(cc1NC(=O)CN1CCN(c3cccc(C(F)(F)F)c3)CC1)OCO2	i
O=C(NCc1ccccc1)N(Cc1cc2cc3c(cc2[nH]c1=O)OCO3)CC1CCCO1 (stereo unspecified)	i
O=C1CC(c2ccccc2)C(C(=O)O)N1 (stereo unspecified)	1.1
CCn1c(C(c2ccccc2)c2ccccc2)n[nH]c1=S	0.2
O=C(Cn1ccc2ccccc2c1=O)NCC1COc2ccccc2O1 (stereo unspecified)	0.6
CCOC(=O)Cn1c(=O)c2c(nc(N3CCOCC3)n2C)n(C)c1=O	0.1
CCOC(=O)c1c(C)nc2ccccn12	i
Nc1nnc(SCC(=O)NC23CC4CC(CC(C4)C2)C3)s1	0.1
COc1ccc2[nH]c(=O)c(CN(C(=O)c3ccccn3)c3ccccc3)cc2c1	0.5
C=CCN1C(=O)/C(=C2/Sc3ccccc3N2C)SC1=Nc1c(C)n[nH]c1C	0.1
CCCc1cc(C(N)=O)c(NC(=O)c2cc(C)on2)s1	i
CCOC(=O)c1oc2ccc(S(=O)(=O)N3CCOCC3)cc2c1C	1.5

Fetched by compound from the entries so far, six records:
SMILES	H5N1 CPE
CC(=O)c1cc2c(cc1NC(=O)CN1CCN(c3cccc(C(F)(F)F)c3)CC1)OCO2	i
C=CCN1C(=O)/C(=C2/Sc3ccccc3N2C)SC1=Nc1c(C)n[nH]c1C	0.1
CCn1c(C(c2ccccc2)c2ccccc2)n[nH]c1=S	0.2
O=C(Cn1ccc2ccccc2c1=O)NCC1COc2ccccc2O1 (stereo unspecified)	0.6
CCOC(=O)Cn1c(=O)c2c(nc(N3CCOCC3)n2C)n(C)c1=O	0.1
CCCc1cc(C(N)=O)c(NC(=O)c2cc(C)on2)s1	i

(next part)
SMILES	H5N1 CPE
CC1CC(C)CN(C(=O)CSc2nnc(-c3ccc(F)cc3)o2)C1 (stereo unspecified)	2.5
CC1CC(C)CN(c2ncnc3c2cnn3Cc2ccc(Cl)cc2)C1 (stereo unspecified)	i
COc1ccc2c(Cl)c(-c3nnc4n3CCCCC4)sc2c1	i
O=C(NCCN1CCN(C(=O)c2cc3ccccc3oc2=O)CC1)c1cc2ccccc2oc1=O	0.7
Cc1noc(NS(=O)(=O)c2ccc(NC(=O)CSc3ncccn3)cc2)c1C	i
CC(=O)NNc1nc2ccccc2s1	i
CCOc1ccc(C(=O)Cc2ccc3oc(C(=O)O)cc3c2)c(O)c1	i
CCc1cc(C)cc(OCCNC(=O)c2cncc(Br)c2)c1	i
CN1CCN(C(=O)c2sc(=S)n(-c3ccccc3)c2N)CC1	0.9
O=C1c2ccccc2C(=O)N1CCc1nc(-c2cccnc2)no1	0.8
CCOc1ccc(CCNC(=O)C2CCN(C(=O)N(C)C)CC2)cc1OCC	0.5
COc1ccc(Cl)cc1NC(=O)C(=O)NC1CCCCCC1	i

The final three records of the section above come first, to join the parts:
SMILES	H5N1 CPE
O=C1c2ccccc2C(=O)N1CCc1nc(-c2cccnc2)no1	0.8
CCOc1ccc(CCNC(=O)C2CCN(C(=O)N(C)C)CC2)cc1OCC	0.5
COc1ccc(Cl)cc1NC(=O)C(=O)NC1CCCCCC1	i
CC(=O)c1ccc(N(C)C)cc1	i
Cc1ccc2c(c1)C(c1ccccc1)N(C(=O)c1ccc(Br)o1)CC(=O)N2 (stereo unspecified)	i
Cc1ccc(/S(C)=N/S(=O)(=O)c2ccc(C)cc2)cc1 (stereo unspecified)	1.3
O=C(NCc1ccco1)Nc1ccc2snnc2c1	0.1
COC(=O)C1=C(C)N(CCc2ccc(OC)cc2)C(=O)C1	i
CC(=O)c1c(C)[nH]c(C(=O)N2CCCCCC2)c1C	0.7
O=C(c1ccc2c(c1)OCCCO2)c1cccs1	i
CC(C)CCNC(=O)c1cnn2c(C(F)(F)F)cc(-c3ccco3)nc12	1.1
CC(=O)c1cccc(OCC(O)CN2CC=C(c3ccccc3)CC2)c1 (stereo unspecified)	i
COc1ccccc1-c1ccc(=O)n(CC(=O)NC(C)(C)C)n1	0.1
Cc1nn(C)c(C)c1S(=O)(=O)N(CC(=O)NCCCOC(C)C)c1ccc(C(C)C)cc1	0.7
CCOC(=O)C(NS(=O)(=O)c1ccccc1)(C(F)(F)F)P(=O)(OCC(C)C)OCC(C)C (stereo unspecified)	i

Grouped by structure: the compounds so far containing two or more sulfur atoms.
SMILES	H5N1 CPE
CC(C)CCNC(=O)CN(Cc1cccs1)C(=O)CCC(=O)Nc1nccs1	1.5
COC(=O)Cn1c(=NC(=O)CSCC(=O)NC2CCCCC2)sc2cc(OC)ccc21	0.3
Nc1nnc(SCC(=O)NC23CC4CC(CC(C4)C2)C3)s1	0.1
C=CCN1C(=O)/C(=C2/Sc3ccccc3N2C)SC1=Nc1c(C)n[nH]c1C	0.1
Cc1noc(NS(=O)(=O)c2ccc(NC(=O)CSc3ncccn3)cc2)c1C	i
CN1CCN(C(=O)c2sc(=S)n(-c3ccccc3)c2N)CC1	0.9
Cc1ccc(/S(C)=N/S(=O)(=O)c2ccc(C)cc2)cc1 (stereo unspecified)	1.3

New compounds follow
SMILES	H5N1 CPE
COC(=O)c1cc(NC(=O)CC2NC3CCCCC3NC2=O)cc(C(=O)OC)c1 (stereo unspecified)	i
Cc1ccc2nc(SCc3ccc([N+](=O)[O-])cc3)nc(C)c2c1	0.4
CC1(C)CC(NC(=O)CC(c2ccccc2)c2ccccc2)CC(C)(C)N1	0.7
CCOc1ccc(C(=O)CCN2CCCCCC2)cc1	0.5
Cc1nnc(C)n1/N=C/c1cccs1	i
CCOC(=O)C1=C(CNCc2ccc(C)cc2)NC(=O)NC1c1cc(C)ccc1C (stereo unspecified)	i
CC(C)(C)c1ccc(C(=O)c2c[nH]c(C(=O)NCc3cccs3)c2)cc1	0.4
CCC(C)NC(=O)CSc1nc2c(sc(=S)n2Cc2ccco2)c(=O)n1-c1ccccc1 (stereo unspecified)	0.5
CCOC(=O)c1c(N)sc2c(OC)c(Br)ccc12	0.6
CC(C)n1cc(-c2ccc(Cl)cc2)cc(C#N)c1=O	1.2
C/C(Cn1nnc([N+](=O)[O-])n1)=N\NC(=O)c1ccccc1Cl	i
CCCC(=O)c1c[nH]c(C(=O)NCCc2ccccn2)c1	i
C[C@@]12CC(=O)NC1N(C(=O)c1cccc(C(F)(F)F)c1)C(c1ccccc1O)C2 (stereo partly specified)	2.9
N#Cc1c(NC(=O)CSc2nnnn2C2CCCCC2)sc2c1CCCC2	i
O=C(COc1ccc(Cl)cc1)Nc1nnc(-c2ccc3c(c2)CCCC3)o1	0.8
O=C(Nc1cccc(-c2cn3ccsc3n2)c1)c1ccccc1	i
CC(C)[C@@H](C(=O)OCC(=O)Nc1ccc2c(c1)OCO2)N1C(=O)c2ccccc2C1=O	1.1
O=C1CCCc2nc(NCc3ccco3)ncc21	9.4
C=CCC(C)(NCc1ccccc1)c1ccco1 (stereo unspecified)	0.6
Cc1cc(C)c(S(C)(=O)=O)c(Oc2ccc(F)cc2)n1	i
Cc1ccc(CNC(=O)c2cc3c(-c4ccc(Cl)cc4)nn(C)c3s2)o1	i
O=C1C2C3C=CC([C@@H]2C(=O)N1c1nccs1)C31CC1 (stereo partly specified)	i
CC(C)N(Cc1nc(-c2ccc(Cl)cc2)no1)C(=O)c1cccs1	0.9
CCOC(=O)c1c(N)ssc1=S	0.3
Cc1ccc(S(=O)(=O)NCc2ccco2)cc1C	4.8
O=C(C(Cc1ccccc1)n1cccc1)N1CCN(c2cccc(Cl)c2)CC1 (stereo unspecified)	i
CCCCN1C(=O)CC(N2CCOCC2)C1=O (stereo unspecified)	0.2
CCCC(=O)NC(c1ccco1)c1c(O)ccc2ccccc12 (stereo unspecified)	0.4
COc1ccccc1CNC(=O)CSCc1cnn(-c2ccccc2)c1-n1cccc1	i
O=S(=O)(c1cccs1)N1CCCc2ccccc21	0.4
COc1ccc(NC(=O)C(=O)N2N=C(C(C)C)CC2(O)C(F)(F)F)cc1 (stereo unspecified)	i
COc1cc(C(=O)Nc2ccc(S(=O)(=O)Nc3nccc(C)n3)cc2)cc(OC)c1OC	1.6
COC(=O)c1ccc(CSc2nc3c(c(=O)n2-c2ccc(Br)cc2)SCC3)o1	i
COc1ccccc1Cc1noc(COc2cccc(C)c2C)n1	i
O=C(NC1CCCCC1)c1cccc(S(=O)(=O)N2CCOCC2)c1	0.1
